Compound activity: PubChem, several laboratories
MT1-MMP promoter: MT1-MMP gene expression reporter suppression – cell-based, luciferase reporter, luminescence (AID 618); MT1-MMP promoter luciferase reporter cells, luminescence; calls from a first round at 10 µM; hits with a dose series show EC50 in µM; hit rate 0.62% among 87,000;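 active means over half of the reporter light lost at 10 µM or EC50 under 50 µM; inactive means the rest and hits that failed the dose series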;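 further: actives suppress MT1-MMP promoter-driven transcription so potencies describe inhibitors; HT1080 fibrosarcoma cells; overnight exposure; toxic or luciferase-blocking compounds were not removed from the actives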
WNV NS2B-NS3 inh: inhibitors of West Nile virus NS2B-NS3 protease | P06935 | WNV NS2B-NS3 protease, fluorogenic substrate Ex360/Em465; hits give low values | z-score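 (tested at a level between 10 and 100 µM)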 | hit rate 0.18% among 65,000;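 active means z-score at -3 or under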;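 further: score is relative to mean and spread of the compound wells of a plate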
Target sequence (P06935 1371-1501 limits assumed): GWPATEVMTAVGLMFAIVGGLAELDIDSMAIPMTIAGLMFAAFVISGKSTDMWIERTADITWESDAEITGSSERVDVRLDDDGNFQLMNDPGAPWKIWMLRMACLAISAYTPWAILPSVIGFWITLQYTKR
Target sequence (P06935 1502-1679 limits assumed): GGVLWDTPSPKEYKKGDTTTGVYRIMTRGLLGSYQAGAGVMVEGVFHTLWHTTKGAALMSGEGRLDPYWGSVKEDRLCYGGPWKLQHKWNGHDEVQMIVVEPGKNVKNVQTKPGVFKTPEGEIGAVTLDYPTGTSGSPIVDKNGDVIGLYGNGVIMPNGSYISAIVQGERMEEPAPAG
Hsc70: small molecules displacing fluorescent ligand from Hsc70 – biochemical, fluorescence polarization, primary screen (AID 568); Hsc70 fluorescence polarization, probe displacement; higher % means a stronger effect; strong numbers were not always called active; displacement, % at 20 µM; hits with a dose series show IC50 in µM; 83,000 tested, under 10 active;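 active means displacement above 50% without optical interference and an IC50 on retest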;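 further: ATPase domain with a fluorescein-tagged ATP probe; 0% = vehicle and 100% = excess ADP; read after one hour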
Active calls of the source: *; i = inactive; . = not tested or not shown.

SMILES	MT1-MMP promoter	WNV NS2B-NS3 inh	Hsc70
CCOC(=O)c1sc2ncnc(NCC(c3cccs3)N(C)C)c2c1C (centres undefined)	i	-0.3	2.0%
COc1ccc(OCC(=O)Nc2cc(-c3nn(C)c(=O)c4ccccc34)ccc2OC)cc1	i	.	-0.2%
CSc1ncc(Cl)c(C(=O)NCc2ccc3c(c2)OCO3)n1	i	1.8	-1.9%
CN(C)S(=O)(=O)N(CC(=O)Nc1ccc2ccccc2c1)c1ccccc1	i	.	6.2%
O=C(CSC1=NCCN1)NC12CC3CC(CC(C3)C1)C2	i	0.02	-1.4%
O=C(NCC1CCCO1)c1nc2c(nnn2Cc2ccc(F)cc2)c(=O)[nH]1 (centres undefined)	i	-0.86	-3.1%
O=c1cccc(-c2ccc(Br)cc2)o1	i	-0.6	2.5%
COc1ccc(OCCCC(=O)Nc2cccnc2)cc1	i	.	6.5%
CC1(C)CC(=O)C(C=Nc2ccc3[nH]ncc3c2)=C(O)C1	i	1.7	1.7%
CC(C)C[C@H](NC(=O)Nc1cccc(C(F)(F)F)c1)C(=O)O	i	0.4	4.9%
COc1ccc(OC)c(C(=O)CN2C(=O)NC(C)(c3ccccc3)C2=O)c1 (centres undefined)	i	0.34	-1.7%
COc1cccc(OC)c1OCCN(C)C	i	.	-1.2%
Cc1cccn2c(=O)c3cc(C(=O)N4CCN(C(=O)c5ccco5)CC4)n(C)c3nc12	i	0.65	-0.7%
CCOC(=O)c1cnc(-n2nc(C)cc2C)nc1NCCc1ccccc1	i	0.5	4.1%
C/C=C/C(=O)OCC(=O)Nc1nc2ccc(C)cc2s1	i	.	-3.1%
CCOC(=O)c1c(C)c(C(=O)Nc2ccc(N(C)C)cc2)c(C)n1CC	i	-0.56	4.2%
CCOC(=O)c1ccccc1NC(=O)CSc1nnc(C(C)C)n1CC	i	.	2.0%
O=S1(=O)N=CN(Cc2cccc(F)c2)c2ccccc21	i	0.73	0.5%
O=C(Cn1c(=O)sc2ccccc21)Nc1ccc(S(=O)(=O)N2CCCC2)cc1	i	-0.08	-1.6%
COc1ccc(N(CC(=O)Nc2ccc3c(c2)OCO3)S(=O)(=O)c2ccccc2)c(OC)c1	i	-0.19	2.0%
CCNS(=O)(=O)c1cc(Br)ccc1OC	i	-0.52	-1.9%
O=C(NC1CCS(=O)(=O)C1)N1CCCCC1 (centres undefined)	i	0.09	3.8%
Cc1cc(C)c(NC(=O)CS(=O)CC(=O)N2CCN(c3ccc(F)cc3)CC2)c(C)c1 (centres undefined)	i	-0.76	1.3%
Cc1ccc(-c2nc3c(=O)n(C)c4ccccc4c3o2)cc1	i	1	-6.3%
COc1ccccc1NC(=O)Nc1ncccc1C	i	0.13	-0.8%

(more compounds)
SMILES	MT1-MMP promoter	WNV NS2B-NS3 inh	Hsc70
Cc1cc(C)n(-c2ncnc3sc(C)c(C)c23)n1	i	0.38	-0.6%
CCOc1cc2c(cc1OCC)C(C(=O)O)C(c1cc(OC)c(OC)c(OC)c1)N(C)C2=O (centres undefined)	i	0.07	-3.8%
CCCCOc1ccccc1Cn1c(=O)oc2ccccc21	i	0.83	1.8%
CCN(CC)c1ncnc2scc(C3COc4ccccc4O3)c12 (centres undefined)	i	.	2.7%
CN(C)c1ccc(/C=C/c2cc[n+]([O-])cc2)cc1	i	-1.2	-62%
CCCCN(C(=O)NC(=O)Nc1ccccc1C)S(C)(=O)=O	i	-0.41	0.0%
O=C(COC(=O)C1COc2ccccc2O1)NC(=O)Nc1ccc2c(c1)OCCO2 (centres undefined)	i	0.66	-7.3%
C=CCN(C(=O)CNC(=O)c1ccco1)C(C(=O)NC1CCCCC1)c1ccccc1F (centres undefined)	i	-0.57	-4.0%
COc1cc(OC)c(C2=NOC(C(=O)NCCc3ccccc3)C2)cc1Cl (centres undefined)	i	.	-4.1%
O=C1CCC(/C=C/c2ccccc2)=NN1Cc1ccc(Cl)c(Cl)c1	i	.	-2.2%
Cc1ccccc1Nc1cc2ccccc2c(=O)[nH]1	i	0.48	66%
CCc1sc(C(=O)Nc2ccsc2C(=O)OC)cc1Br	i	0.03	6.6%
CCOC(=O)CNc1nc(C#N)nc(N2CCOCC2)n1	i	0.25	-7.1%
COc1ccccc1OCCSc1nc2ccccc2c(=O)[nH]1	i	-0.56	1.1%
Cn1c(=O)oc2cc(S(=O)(=O)NCCC(=O)NCCc3ccc(Cl)cc3)ccc21	i	-0.34	-4.8%
N/C(CN1CCCC1=O)=N\O	i	-0.73	2.5%
O=C(Cn1c(C(=O)NCC2CCCO2)cc2sccc21)c1ccccc1 (centres undefined)	i	-1.2	-0.1%
O=C(NCCc1nc2ccccc2[nH]1)c1ccc(F)cc1	i	-0.61	12%
COCCn1c(SCC(=O)OC(C)C)nnc1-c1ccccc1	i	-0.14	-0.5%
COc1ccc(-c2nnc3sc(C4CCCCC4)nn23)cc1OC	i	-0.16	-1.2%
Cc1cccc(NC(=O)Cn2nnc(-c3ccc(CN4CCCC4)cc3)n2)c1C	i	1.1	-13%
COc1ccc(C(=O)CN2CCN(c3ccc(F)cc3)CC2)cc1OC	i	-1	-1.1%
CN(C)S(=O)(=O)c1ccc(Nc2ccc(-c3ccc4c(c3)OCCO4)nn2)cc1	i	.	5.1%
CCOC(=O)CNC(=O)CNC(=O)c1ccc(OCC(C)C)cc1	i	0.27	-5.6%
CCCC1=C(C(=O)OCC)C(c2ccc(NC(C)=O)cc2)NC(=O)N1 (centres undefined)	i	-0.68	-0.4%

An excerpt from above in order of formula weight, ascending.
SMILES	MT1-MMP promoter	WNV NS2B-NS3 inh	Hsc70
COc1cccc(OC)c1OCCN(C)C	i	.	-1.2%
Cc1ccccc1Nc1cc2ccccc2c(=O)[nH]1	i	0.48	66%
COCCn1c(SCC(=O)OC(C)C)nnc1-c1ccccc1	i	-0.14	-0.5%
COc1ccc(C(=O)CN2CCN(c3ccc(F)cc3)CC2)cc1OC	i	-1	-1.1%
O=C1CCC(/C=C/c2ccccc2)=NN1Cc1ccc(Cl)c(Cl)c1	i	.	-2.2%
CCc1sc(C(=O)Nc2ccsc2C(=O)OC)cc1Br	i	0.03	6.6%
O=C(COC(=O)C1COc2ccccc2O1)NC(=O)Nc1ccc2c(c1)OCCO2 (centres undefined)	i	0.66	-7.3%

Pulled by compound from above:
SMILES	MT1-MMP promoter	WNV NS2B-NS3 inh	Hsc70
CCN(CC)c1ncnc2scc(C3COc4ccccc4O3)c12 (centres undefined)	i	.	2.7%
Cc1cc(C)n(-c2ncnc3sc(C)c(C)c23)n1	i	0.38	-0.6%
C/C=C/C(=O)OCC(=O)Nc1nc2ccc(C)cc2s1	i	.	-3.1%
COc1ccc(OCC(=O)Nc2cc(-c3nn(C)c(=O)c4ccccc34)ccc2OC)cc1	i	.	-0.2%
CCNS(=O)(=O)c1cc(Br)ccc1OC	i	-0.52	-1.9%

Remaining list, next part:
SMILES	MT1-MMP promoter	WNV NS2B-NS3 inh	Hsc70
Cc1ccc(OC(C)C(=O)Nc2ccc(S(=O)(=O)Nc3cc(C)on3)cc2)cc1 (centres undefined)	i	.	1.4%
O=C(Nc1ccc2oc(-c3ccncc3)nc2c1)c1ccccc1F	i	1	-2.3%
CC1CN(C2CCCCC2)c2nc3c(c(=O)[nH]c(=O)n3C)n2C1 (centres undefined)	i	1.6	-0.7%
O=C(Nc1ccon1)c1csc2c1CCCC2	i	-0.98	0.5%
O=C(Nc1ccncc1)c1ccc2c(c1)OCCO2	i	-0.84	-3.4%
CN(C)S(=O)(=O)c1ccc2c(c1)c(=O)c(C(=O)NCCCN1CCCCCC1)cn2C	i	-0.45	5.4%
COc1cccc(NC(=O)CCCn2c(=O)[nH]c3ccccc3c2=O)c1	i	0.7	-6.0%
COc1ccc(-c2c(C)nn3c(N4CCC(C(=O)N5CCCCC5)CC4)cc(C)nc23)cc1OC	i	0.94	-1.8%
CCOc1ccc(N(C(C)=O)C2C=CS(=O)(=O)C2)cc1 (centres undefined)	i	-0.21	0.1%
COC(=O)c1sc(N)c(C(=O)OC)c1COC(=O)c1c(C)noc1C	i	0.15	-2.0%
Cc1occc1-c1nnc(SCC(=O)Nc2nc(C(C)(C)C)cs2)o1	i	.	3.6%
O=C1CCCN1CCC1CCN(C2CC(=O)N(c3ccc(F)cc3)C2=O)CC1 (centres undefined)	i	-1.1	0.9%
CCN(CC)CCN(C)Cc1ccc(Br)cc1	i	.	-0.3%
CCc1ccc(CCC(=O)Nc2nccs2)o1	i	-0.84	-0.4%
COCCCNC(=O)Cn1cc(C(C)=O)c2ccccc21	i	-1.6	0.5%
CCOc1ccccc1NC(=O)CSc1nnnn1-c1ccccc1	i	.	3.6%
CCc1ccc(-n2c(SCC(=O)Nc3cc(C)[nH]n3)nc3[nH]ncc3c2=O)cc1	i	-0.26	-0.6%
CCC(C)NC(=O)N[C@@H](CCSC)C(=O)O (some centres undefined)	i	-0.39	-9.2%
Cc1ccc(S(=O)(=O)N2CC(=NO)C2)cc1	i	-0.47	1.9%
Cc1csc2nc(CNC(=O)C3CC=CCC3C(=O)O)cn12 (centres undefined)	i	-4.3*	-3.9%
CNC(=O)c1cc2ccc(OC)cc2oc1=O	i	2.6	4.4%
Cn1c(CSCc2ccc(F)cc2)nnc1SCC(=O)Nc1nccs1	i	0.26	7.7%
Cc1cc(=O)n2c(-c3ccccc3C)n[nH]c2n1	i	-0.93	-0.5%
COc1ccc(C(=O)Nc2cccc(OC)c2)cc1	i	-0.91	-3.3%
Cc1ccc(C(=O)C(C)Oc2cccc(NC(=O)c3ccco3)c2)cc1 (centres undefined)	i	.	3.4%

The list continues:
SMILES	MT1-MMP promoter	WNV NS2B-NS3 inh	Hsc70
c1cc(CNCCCN2CCOCC2)ccn1	i	.	0.7%
COC(=O)/C=c1\sc2ncnn2c1=O	i	-0.58	9.0%
CCN(C(=O)c1ccc(C(C)(C)C)cc1)c1nnc(Cn2nnc3ccccc32)s1	i	-0.06	-36%
CC(C)c1nnc(SCC(=O)N2CCOCC2)n1C	i	.	6.5%
Cc1ccc(S(=O)(=O)N2CCCC2C(=O)OCC(=O)Nc2ccc3c(c2)OCO3)cc1 (centres undefined)	i	-0.44	-5.3%
Cc1nc2ncnn2c(C)c1CCC(=O)N1CCN(Cc2ccccc2)CC1	i	.	2.6%
O=C(NC1CCCCC1)c1ccc(Cn2cc(Cl)cn2)cc1	i	.	-1.2%
O=C1CCCC2=C1C(c1ccc3c(c1)OCO3)c1c([nH]n(-c3ccccc3)c1=O)N2 (centres undefined)	i	-0.15	-0.3%
O=C(NCCc1ccccc1)c1ccc(=O)oc1	i	0.31	5.0%
COc1ccc(C(=O)Cc2cnn(-c3ccccc3)c2)c(O)c1	i	.	-1.2%
CC1CC(=O)c2cnc(Nc3cccc(C(F)(F)F)c3)nc2C1 (centres undefined)	i	0.21	0.8%
CCCN1CN(Cc2ccco2)c2nc3ccccc3n2C1	i	-1.3	5.7%
Fc1cc2nc(-c3ccncc3)[nH]c2cc1F	i	1.1	10%
Cc1ccccc1NC(=O)c1sc2nc3c(c(-c4ccco4)c2c1N)CCCC3	i	.	5.0%
CC(=O)Nc1ccc(OC(=O)c2ccco2)cc1	i	.	5.0%
CCc1cc(=O)oc2cc(C)c3c(C)coc3c12	i	0.17	-0.7%
COC(=O)c1ccc(OC)c(CSc2nnc(COc3cccc(C)c3)o2)c1	i	1	2.2%
COC(=O)c1ccc(-n2nnnc2SCC(=O)NCc2cccc(C(=O)O)c2)cc1	i	-1.2	-4.8%
Cn1c(CNC(=O)Nc2ccccc2)nnc1SCc1ccccc1	i	-0.36	-2.0%
O=C(Nc1ccccc1N1CCCCC1)c1cccc(F)c1	i	0.74	-3.3%
Cc1ccccc1N(C)S(=O)(=O)c1ccc2[nH]cc(C(=O)NCC3CCCO3)c(=O)c2c1 (centres undefined)	i	0.63	3.6%
CCOc1cc(N2CCOCC2)c(OCC)cc1NC(=O)c1nc2nc(C)cc(C)n2n1	i	0.52	-1.0%
OCc1cn(-c2ccccc2)nc1-c1cccnc1	i	0.84	-5.9%
O=C(COc1ccccc1CNCc1ccccc1)Nc1ccccc1	i	.	-0.3%
COc1ccc(C(=O)N2CCCC2)cc1S(=O)(=O)N1CCOCC1	i	-0.33	3.3%

Continuation:
SMILES	MT1-MMP promoter	WNV NS2B-NS3 inh	Hsc70
CCOC(=O)c1c(NC(=O)COC(=O)c2c(C)noc2C)sc2c1CCC2	i	-0.21	-4.6%
O=C(NCCCn1ccnc1)c1noc2c1CCc1ccccc1-2	i	-0.59	8.8%
COCCn1c(Sc2ccc(C)cc2)nc2c1c(=O)[nH]c(=O)n2C	i	-0.63	-0.7%
COc1cc(C(=O)OCC(=O)N(C)Cc2ccccc2)cc(OC)c1OC	i	0.59	2.5%
CSc1nc2c(c(-c3ccc(O)cc3)c1C#N)CCC2	i	-0.52	2.9%
Cc1cc(C)nc(SCC(=O)OCN2C(=O)c3ccccc3C2=O)n1	i	0.35	7.8%
O=C(Cc1cc(=O)[nH]c(=O)[nH]1)NCC1CCCO1 (centres undefined)	i	-0.71	4.3%
O=S(=O)(c1ccccc1)c1cccc(S(=O)(=O)N2CCCCC2)c1	i	-0.64	-0.9%
CCn1c(SCC(=O)c2ccc(OC)cc2)nnc1C(C)NC(=O)c1ccc(OC)cc1 (centres undefined)	i	0.42	-2.3%
CCn1nnnc1Oc1ccc(Cl)cc1	i	0.03	-3.1%
COc1ccc(C2C(C(=O)Nc3ccccn3)=C(C)Nc3ncnn32)c(OC)c1 (centres undefined)	i	-0.68	-1.8%
CC(C)OCCCNC(=O)CCN1C(=O)COc2ccccc21	i	1.2	3.1%
